# PINK1 expr mod: changes PINK1 expression | AID 624263 | 410,000 compounds, 0.2% hits | Potency, µM (highest dose often 76.6 µM), without a hit: at the top dose activation (PINK1 increase), most hits filed as activators | PINK1 immunofluorescence, high-content cytometry, 24 h; active = well fitted activation curve with a large enough effect; inconclusive = small, poorly fitted or top-dose-only effect; inactive = flat fitted curve, though single readings scatter; cell line not stated here;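 note: potency is the fitted concentration of half-maximal effect; % of control where 0% means no effect; nearly all actives have a fitted effect of over 65% in size; a mitochondrial uncoupler was the plate control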
#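 Stable cell line, 250 cells/well, 12 h attachment; compounds pinned at 5 concentrations, 24 h; CCCP control. Fixed with nuclear dye, primary antibodies 12 h at 10 degrees C, secondary plus cell stain; laser-scanning cytometer read.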
# D2 ag: human D2 receptor agonism in beta-arrestin assay; P14416; DiscoveRx PathHunter D2 beta-arrestin, luminescence, 90 min; 100% = 57 uM dopamine signal; activation, % (concentration not given with the values); 360,000 compounds, 0.084% hits; AID 624465; in the data active = activation above about 40%; inconclusive = about 15% to 40%; inactive = below about 15%; note: the text of the record calls up to 30% inactive
# Target sequence (P14416 whole entry, looked up): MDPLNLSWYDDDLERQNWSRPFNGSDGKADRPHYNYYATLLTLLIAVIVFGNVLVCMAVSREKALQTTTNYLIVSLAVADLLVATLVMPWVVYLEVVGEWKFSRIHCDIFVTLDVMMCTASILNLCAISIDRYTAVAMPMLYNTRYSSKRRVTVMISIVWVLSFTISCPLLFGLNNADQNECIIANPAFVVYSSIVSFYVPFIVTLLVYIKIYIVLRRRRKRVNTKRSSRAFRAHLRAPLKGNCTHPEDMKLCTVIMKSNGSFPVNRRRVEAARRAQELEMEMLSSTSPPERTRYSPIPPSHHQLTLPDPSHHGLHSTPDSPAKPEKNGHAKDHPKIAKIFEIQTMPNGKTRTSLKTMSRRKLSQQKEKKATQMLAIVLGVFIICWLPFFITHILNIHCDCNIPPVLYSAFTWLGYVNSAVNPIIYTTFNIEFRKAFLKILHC
#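 DiscoveRx PathHunter D2 beta-arrestin cells (2,100/well) attached overnight, then compound-stimulated 90 min at 37 C in HBSS/10 mM HEPES/0.1% Tween-20 buffer; beta-galactosidase complementation read by luminescence after 1 h at ambient temperature. Dopamine 57 uM final (EC100) as control.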
# ClpP mod: qHTS Assay for Activators of ClpP | ATP-dependent Clp protease proteolytic subunit (Bacillus subtilis (strain 168)), P80244 | purified B. subtilis ClpP, FRET peptide cleavage, 20 min | Potency, µM (highest dose often 57.5 µM), for the others: at the top dose activity change, negative = active | 340,000 compounds, 1.9% hits | AID 651965, 2013; active = well fitted falling curve with a large enough effect; inconclusive = small, poorly fitted or top-dose-only effect; inactive = no such curve, though single readings can be large or run the other way; note: potency is the fitted concentration of half-maximal effect; the source files actives as falling curves though it sought activators and does not explain the sign; nearly all actives have a fitted effect of over 65% in size; many hits overshoot -100%
# Target sequence (P80244 whole entry, looked up): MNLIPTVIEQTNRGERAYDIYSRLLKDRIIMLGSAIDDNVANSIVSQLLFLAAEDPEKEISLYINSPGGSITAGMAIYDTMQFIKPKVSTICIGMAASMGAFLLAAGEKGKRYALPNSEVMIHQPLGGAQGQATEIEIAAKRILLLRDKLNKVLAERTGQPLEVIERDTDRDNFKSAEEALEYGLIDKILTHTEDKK
#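 FRET quenching reversal measured ClpP activation: 10 microg/mL B. subtilis ClpP at pH 8 with the FRET-FV decapeptide, read at 430 nm after 320 nm excitation. The 20-min minus 0-min signal was scaled between DMSO/no-enzyme wells and ADEP (5.8 microM final).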
# Menin MLL FP FL: displaces fluorescein MLL peptide from human menin; Fluorescence polarization, fluorescein-MLL peptide displacement from menin; FP activity change, % at 61.4 µM; 290,000 tested, under 10 active; AID 1766; inconclusive = falling polarisation curve, or a change in total fluorescence; inactive = total fluorescence flat and polarisation flat or rising; no compound was filed as active; the % refers to the polarisation; negative = inhibition;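 note: % of control where 0% means no effect; inhibitors lower the polarisation; unlabelled MLL peptide was the positive control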
# gsp agonist: gsp mutant agonism | gsp mutant cells, cAMP HTRF, 30 min; control for the full effect not named in the record | Potency, µM (series often up to 76.9 µM), without a hit: top-dose activation (cAMP increase), usual class: activators | 340,000 compounds, 0.13% hits; active = well fitted activation curve with a large enough effect; inconclusive = small, poorly fitted or top-dose-only effect, or another doubt; inactive = no such curve, though single readings can be large or run the other way; cell line not stated here;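 note: phosphodiesterase inhibitor Ro 20-1724 added with compounds to block cAMP breakdown; potency is the fitted concentration of half-maximal effect; nearly all actives have a fitted effect of over 60% in size; about a fifth of the inactives were tested at one dose only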
#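 Cells stably selected in G418 were plated at 2000/well, grown 16-24 hr, then given compounds in DMSO with the PDE inhibitor […] (300 uM solution added) for 30 min at 37C; cAMP was read by HTRF.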
# gsp antagonist: antagonizes gsp, the McCune-Albright syndrome mutation | gsp-mutant cells, cAMP HTRF, 30 min; control for the full effect not named in the record | Potency, µM (titrated, usually from 76.9 µM), for inactives: at the highest dose activity change, negative = inhibition, actives largely listed as inhibitors | 340,000 compounds, 0.4% hits | AID 624288; active = falling curve of any shape with a large fitted effect; inconclusive = falling curve, mostly with a smaller effect; inactive = flat or rising curve; cell line not stated here;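 note: intracellular cAMP measured with PDE inhibitor Ro 20-1724 present during compound exposure; potency is the fitted concentration of half-maximal effect; % is set by controls: 0 for no effect and ±100 for the full control effect; nearly all actives have a fitted effect of over 65% in size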
#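 HTRF cAMP measurement after 30 min RT detection following 30 min, 37C compound treatment alongside […] (added as 300 uM solution) in G418-selected cells seeded at 2000/well and grown 16–24 h.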
# Sfp PPTase inh: blocks B. subtilis Sfp PPTase activity | Q9F4F7 | Biochemical Sfp PPTase activity, qHTS | Potency, µM, inactives show max response, negative = inhibition, actives largely listed as inhibitors | 310,000 compounds, 3.5% hits | AID 1490; active = well fitted inhibition curve with a large enough effect; inconclusive = small, poorly fitted or top-dose-only effect, or another doubt; inactive = no such curve, though single readings can be large or run the other way;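 note: the enzyme is Sfp with the accession as filed and its product quenches rhodamine fluorescence; potency is the fitted concentration of half-maximal effect; 0% = enzyme reaction without inhibitor and -100% = no enzyme wells; top concentration of the series not given in the record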
#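 Compounds were incubated with enzyme (final 15 nM) for 15 min at room temperature before substrate addition started the reaction. Fluorescence at 525 nm excitation, 598 nm emission was recorded immediately and after 30 minutes.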
# * = called active by the depositor; ? = inconclusive; . = no result given; [ ] = another dose, or the depositor's remark.
SMILES,PINK1 expr mod,D2 ag,ClpP mod,Menin MLL FP FL,gsp agonist,gsp antagonist,Sfp PPTase inh
O=C(CCc1c[nH]c2ccccc12)NCc1ccc2c(c1)OCO2,-0.7%,-5.7,11.7%,-0.8,-17.3%,-6.7%,8.8%
CCOC(=O)C(NC(=O)CC)(N1CCc2ccccc2C1)C(F)(F)F (stereo unspecified),-0.4%,-5.1,-1.0%,-0.7,-21.4%,5.4%,8.3%
CCn1c(SCC(=O)Nc2cccc(C)n2)nnc1-c1ccco1,0.6%,-3.2,-3.0%,0.6,7.7%,2.8%,0.2%
Cc1ccc(S(=O)(=O)N2CCC(C(=O)OC(C)C(=O)NCc3ccccc3)CC2)cc1C (stereo unspecified),3.1%,-2.1,-1.9%,6.1,-3.2%,-6.1%,1.3%
CNc1cncc(C(=O)O)c1,1.4%,-2.0,.,-12.2,1.3%,1.4%,-14.4%
CCOCCCNC(=S)N1CCN(Cc2ccc3c(c2)OCO3)CC1,-1.9%,1.4,.,1.7,?,-8.1%,?
CC(=C/c1ccccc1)/C=N/n1cnnc1,.,-2.6,0.2%,-1.0,7.5%,3.2%,-0.4%
O=C(CN(C(=O)CCC(=O)Nc1nccs1)c1ccc2c(c1)OCO2)NCC1CCCO1 (stereo unspecified),5.5%,0.6,-2.1%,1.7,2.3%,6.3%,9.0%
Cc1ccc(N=C2SC(C(=O)O)CC(=O)N2C)cc1C (stereo unspecified),4.5%,-3.1,.,-0.5,-7.7%[15.4 µM],-0.1%,2.8%
CC(=O)c1ccc(NC(=O)CSc2nnc(C3CC3)n2C2CC2)cc1,2.0%,0.3,.,.,-1.2%,0.7%,.
CCNC(=O)C1(C)CCN(Cc2ccccc2-c2ccccc2)C1 (stereo unspecified),1.2%,-1.1,0.3%,.,.,.,.
c1ccc2c(c1)OCCOCCOCCOCCOc1ccccc1OCCOCCOCCO2,2.3%,-0.1,-0.8%,-0.3,-57.8%[inhibitor],-4.1%,-0.9%
CC(C)(C)n1nnnc1C(c1ccc2ncccc2c1)N1CCSCC1 (stereo unspecified),.,0.5,0.1%,-3.0,-6.1%,-0.8%,11.4%
COc1ccc(NC(=O)N2CCN(CCC#N)CC2)cc1,1.4%,0.1,-0.2%,-0.4,1.7%,14.6%,0.1%
Cc1cccc(N2C(=S)NC3c4cc(Cl)ccc4OC2(C)C3C(=O)N(C)C)c1 (stereo unspecified),0.6%,-4.1,-1.8%,2.4,-2.5%[15.4 µM],-3.2%,0.7%
O=C(NC(=O)c1ccccc1)C1=C(N2CCCC2)COC1=O,1.1%,-2.6,-3.4%,.,24.7%,-0.7%,.
O=C(O)C(Oc1ccc2c(-c3ccccc3)cc(=O)oc2c1)c1ccccc1 (stereo unspecified),2.1%,-3.1,.,4.1,20.7%[15.4 µM],-11.0%,18.7%
Cc1ccc(/C=C2\SC(=S)N(CCC(=O)NCCCN3CCOCC3)C2=O)cc1,6.8%,6.4,.,0.8,-2.8%,5.1%,14.0%
Cc1nc(C(=O)N2CCCC(Nc3ccc(C)c(C)c3)C2)cs1 (stereo unspecified),-0.6%,-2.6,1.2%,.,-23.3%,-7.9%,12.1%
CCNC(=O)C1(C)CCN(C(=O)c2ccc(OC(F)F)cc2)C1 (stereo unspecified),0.1%,-5.0,-0.6%,.,.,.,.
COc1ccc(N(Cc2cc3cc(OC)ccc3[nH]c2=O)S(C)(=O)=O)cc1,0.8%,-3.4,?,5.2,7.5%,4.2%,-8.6%
O=C(NC(=S)NNC(=O)c1cc2ccccc2cc1O)c1ccco1,0.8%,1.1,0.4%,-2.9,-0.2%[15.4 µM],-12.4%,9.1%
C/C=C/c1ccc(OCC(=O)OCC(=O)Nc2c(C)nn(-c3ccccc3)c2C)c(OC)c1,-2.2%,-3.7,?,.,-30.2%[inhibitor],-9.1%,.
O=C(NC12CC3CC(CC(C3)C1)C2)N1CCC(O)CC1,1.4%,-5.3,-0.3%,0.4,13.1%,0.6%,3.8%
O=C(CCC(=O)NNC(=O)Nc1ccc(Cl)cc1)NCc1ccccc1,4.6%[38.3 µM],2.3,0.6%,4.9,-6.8%,-2.8%,24.2%
COc1ccccc1NC(=O)NNC(=O)CCN1CCOCC1,-0.2%,1.6,0.0%,2.1,17.8%,-0.1%,13.1%
COc1ccccc1OCC(=O)NC1CCCc2ccccc21 (stereo unspecified),-1.7%,-1.5,.,4.3,-6.4%[15.4 µM],-11.2%,3.8%
CC(C)(C)c1ccc(C(=O)Nc2ccc(Cl)cc2)cc1,2.1%,-3.2,-18.1%,0.9,-6.3%[15.4 µM],-10.5%,-5.6%
Cc1cc(C(=O)NCCCc2ccccc2)no1,-0.2%[38.3 µM],-2.9,1.0%,6.1,-1.3%,5.3%,19.9%
COC(=O)c1ccc(CSc2nnc(NC(=O)c3cc4c(s3)CCCC4)s2)cc1,1.0%,0.8,-9.5%,10.3,22.4%,-2.8%,14.9%
N#CCC(=O)Nc1ccc(C(=O)OCC(=O)C23CC4CC(CC(C4)C2)C3)cc1,?,-4.4,-4.2%,.,9.2%,-10.8%,.
COc1ccc([N+](=O)[O-])cc1C(=O)Nc1ccc(Cc2ccncc2)cc1,0.9%,-3.1,-0.8%,0.3,-8.0%,2.0%,-6.9%
O=C(/C=C/c1ccc(F)cc1)NNC(=O)CCN1CCN(Cc2ccccc2)CC1,0.0%,-2.0,.,-2.8,-15.3%,6.0%,18.7%
CC[C@]12c3[nH]c4ccccc4c3CCN1C(=O)C(CC(=O)NCCCN(C)C)C[C@@H]2C(=O)N1CCN(C(=O)C2CC2)CC1 (stereo partly specified),-0.3%,0.2,-7.2%,.,.,4.0%,.
Oc1ccc(C[C@@H]2CNCCN2CCc2cccc3ccccc23)cc1,0.3%,-3.6,-6.5%,.,6.4%,-4.0%,.
COc1cc(CNc2ncnc3c2ncn3[C@H]2CN(Cc3ccc(Cl)cc3)C[C@@H](CO)O2)cc(OC)c1OC,6.1%,?,-3.8%,.,.,.,.
CCCCCC(O)(c1ccc(OC)cc1)C(CN1CCOCC1)c1ccccc1 (stereo unspecified),7.1%,-0.8,.,-0.5,-7.2%,-20.1%,-7.7%
O=C(Nc1ccc(-n2cnnn2)cc1)c1cn2ccccc2n1,-2.2%,-1.7,.,-0.3,-11.3%[15.4 µM],3.0%,12.9%
CCOC(=O)CCn1nnc(N)n1,-3.4%[38.3 µM],-1.6,-0.3%,5.7,5.8%,8.8%,20.3%
O=C1CC2C(CCC23OCCO3)c2ccc3ccccc3c21 (stereo unspecified),-0.2%,2.5,-2.1%,.,28.1%,-8.0%,.
CC(C)N(CCNCC(O)COc1ccc(C(C)(C)c2ccccc2)cc1)C(C)C (stereo unspecified),-0.4%,-8.1,-0.4%,-2.1,-0.6%[15.4 µM],8.6%,?
O=C(NNC(=O)c1ccccc1O)c1ccc(NS(=O)(=O)c2ccc(F)cc2)cc1,5.5%,-0.6,.,.,-18.3%[15.4 µM],0.1%,.
COc1ccccc1N1CCN(C(=O)C(C)CS(=O)(=O)c2ccc3c(c2)NC(=O)CS3)CC1 (stereo unspecified),2.0%,-1.4,3.3%,2.7,0.3%,-1.1%,10.0%
O=c1c(Cl)c(N2CCC3(CC2)OCCO3)cnn1C12CC3CC(CC(C3)C1)C2,14.8%,3.3,1.5%,0.6,-35.8%[inhibitor],-2.8%,8.3%
COc1ccc(NC(=O)CSc2nc(SC)ns2)c(OC)c1,-3.1%,2.0,.,1.6,16.1%,0.8%,8.6%
Cc1ccc(Cn2ncc(C)c2N)o1,0.0%,5.1,-2.3%,-0.4,-18.6%,5.9%,22.3%
CCCc1cc(=O)[nH]c(SCc2csc(-c3ccccc3)n2)n1,-0.1%,-3.3,-1.7%,7.5,8.4%[15.4 µM],-1.7%,-21.4%
COc1cc(C(=O)COC(=O)CNC(=O)C2CCCCC2)cc(OC)c1OC,1.5%,-2.9,-0.7%,-0.2,-13.4%,-24.3%,6.3%
COc1ccc(OC)c(C2C(C(=O)c3cc4ccccc4o3)=C(O)C(=O)N2c2cc(C)on2)c1 (stereo unspecified),-1.9%,-4.5,6.4%,-1.3,14.1µM*,-8.5%,6.3%
Brc1csc(/C=N/Nc2nc3ccccc3s2)c1,9.7%,0.7,-4.0%,7.9,-2.7%,-1.1%,?
CCC1=NN2C(=N)/C(=C\c3cccn3-c3ccc(Cl)cc3)C(=O)N=C2S1,1.8%,-3.8,.,-0.1,-3.6%[15.4 µM],?,0.2%
CCN(CC)P(=O)(c1ccccc1)c1c(C)nc2ccccn12 (stereo unspecified),-0.3%,4.4,.,-0.5,18.6%,6.1%,18.0%
CC(C)CC(CO)N1CCN(C(=O)c2ccc(C(C)(C)C)cc2)CCC1=O (stereo unspecified),0.7%,1.9,2.0%,1.2,?,10.5%,?
CCC(C)(C)n1nnnc1C(c1ccccn1)N1CCOCC1 (stereo unspecified),.,-1.6,-4.4%,-0.8,-33.3%[inhibitor],7.3%,5.9%
O=C(CCC(=O)OCCCC(F)(F)C(F)(F)F)Nc1ccc(Cl)cc1Cl,-1.2%,0.7,2.0%,0.2,11.4%,-11.1%,14.9%
COc1ccccc1Nc1nc(-c2cccnc2)cs1,0.9%,-6.1,-9.9%,15.2,-34.0%[15.4 µM],2.7%,-8.4%
Cc1cccc(-c2nc3ccccc3c(=O)[nH]2)c1,8.0%,-7.0,-5.0%,0.4,?,4.2%,2.7%
O=C(c1ccc(-c2ccccc2Cl)s1)N1CCOCC1,0.8%,-1.9,0.5%,.,-3.2%,1.2%,.
Cc1ccc(CNC(=O)CN2C(=O)COc3ccc(C)cc32)cc1,.,-2.4,-2.1%,-0.4,-27.1%,-9.2%,14.7%
COc1cc2nc(CN3CCN(S(=O)(=O)c4ccccc4)CC3)[nH]c(=O)c2cc1OC,3.2%,2.4,-2.2%,.,-40.9%[inhibitor],-22.7%,.
COc1ccccc1CNCC(O)(c1ccc(Cl)cc1)c1ccc(Cl)cc1,?,-3.3,-0.2%,-1.2,?,3.6%,-10.3%

# High-throughput results from PubChem.
